FGF22 binding: binders of human FGF22 protein, primary screen, FGF22 synaptogenesis inhibitor project, biophysical, thermal shift, single point; hit rate 1.5% among 340,000; Fibroblast growth factor 22 (Homo sapiens), Q9HCT0; calls only at 9.99 µM; recombinant FGF22 thermal shift, SYPRO orange fluorescence; percent of sucrose octasulfate shift, DMSO zero;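 active = melting point raised past a set limit in the mean and every replicate; three in four hits are not shown here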
Target sequence (Q9HCT0 whole entry, looked up): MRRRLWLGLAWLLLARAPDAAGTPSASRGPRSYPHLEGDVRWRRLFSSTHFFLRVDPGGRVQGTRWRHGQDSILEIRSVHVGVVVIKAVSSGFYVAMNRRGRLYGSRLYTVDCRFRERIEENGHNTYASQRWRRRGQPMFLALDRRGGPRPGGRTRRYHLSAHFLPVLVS
Calls only; i = inactive; + = active, no number.

The first seven entries as a preview:
smiles | FGF22 binding
CO[C@H]1CN(C)C(=O)c2cc(NS(=O)(=O)CC(F)(F)F)ccc2OC[C@@H](C)N(CCC(F)(F)F)C[C@H]1C | i
COc1ccc(NC(=O)N[C@H]2CC[C@H](CCn3cc(-c4ccccc4F)nn3)O[C@@H]2CO)cc1 | i
C[C@@H]1CN([C@@H](C)CO)C(=O)Cc2cc(NC(=O)Cc3ccccc3)ccc2O[C@@H]1CN(C)Cc1ccncc1 | i
COc1ccc(CN(C)C[C@H]2OCCCC[C@H](C)Oc3ccc(NC(=O)Nc4ccc(F)cc4)cc3C(=O)N([C@@H](C)CO)C[C@H]2C)cc1 | i
COc1ccc(-c2ccc([C@H]3[C@@H](C#N)N(C(=O)NC4CCCCC4)[C@@H]3CO)cc2)cc1 | i
C[C@H]1CN([C@@H](C)CO)C(=O)Cc2cc(NC(=O)c3ccncc3)ccc2O[C@@H]1CN(C)Cc1ccc(C(F)(F)F)cc1 | i
COc1ccc(NC(=O)N(C)C[C@H]2Oc3ccc(NC(=O)Nc4cccc5ccccc45)cc3C(=O)N([C@@H](C)CO)C[C@H]2C)cc1 | i

The whole of this part, repeating the preview:
smiles | FGF22 binding
CO[C@H]1CN(C)C(=O)c2cc(NS(=O)(=O)CC(F)(F)F)ccc2OC[C@@H](C)N(CCC(F)(F)F)C[C@H]1C | i
COc1ccc(NC(=O)N[C@H]2CC[C@H](CCn3cc(-c4ccccc4F)nn3)O[C@@H]2CO)cc1 | i
C[C@@H]1CN([C@@H](C)CO)C(=O)Cc2cc(NC(=O)Cc3ccccc3)ccc2O[C@@H]1CN(C)Cc1ccncc1 | i
COc1ccc(CN(C)C[C@H]2OCCCC[C@H](C)Oc3ccc(NC(=O)Nc4ccc(F)cc4)cc3C(=O)N([C@@H](C)CO)C[C@H]2C)cc1 | i
COc1ccc(-c2ccc([C@H]3[C@@H](C#N)N(C(=O)NC4CCCCC4)[C@@H]3CO)cc2)cc1 | i
C[C@H]1CN([C@@H](C)CO)C(=O)Cc2cc(NC(=O)c3ccncc3)ccc2O[C@@H]1CN(C)Cc1ccc(C(F)(F)F)cc1 | i
COc1ccc(NC(=O)N(C)C[C@H]2Oc3ccc(NC(=O)Nc4cccc5ccccc45)cc3C(=O)N([C@@H](C)CO)C[C@H]2C)cc1 | i
O=C(C[C@@H]1CC[C@H]2[C@@H](COC[C@H](O)CN2S(=O)(=O)c2ccccc2)O1)NCc1ccc(-c2ccccc2)cc1 | i
C[C@H](CO)N1C[C@H](C)[C@@H](CN(C)C(=O)CC2CC2)Oc2ncc(C#CC3CC3)cc2C1=O | i
CNC(=O)C[C@H]1CC[C@@H]2[C@H](COC[C@H](O)CN2C(=O)c2ccc3c(c2)OCO3)O1 | i
CCCN(C)C[C@@H]1Oc2cc(-c3ccccc3C)ccc2S(=O)(=O)N([C@H](C)CO)C[C@@H]1C | i
C[C@H]1CN([C@@H](C)CO)C(=O)Cc2cc(NC(=O)CCCN(C)C)ccc2O[C@@H]1CN(C)S(C)(=O)=O | i
CO[C@@H]1CN(C)C(=O)c2cc(NC(=O)Nc3ccccc3)ccc2OC[C@H](C)N(C(=O)CC2CC2)C[C@@H]1C | i
COc1ccc(S(=O)(=O)N(C)C[C@@H]2OCCCC[C@H](C)Oc3ccc(NS(=O)(=O)c4ccc(C)cc4)cc3C(=O)N([C@H](C)CO)C[C@H]2C)cc1 | i
CO[C@@H]1CN(C)C(=O)c2ccc(NC(=O)C3CCOCC3)cc2OC[C@@H](C)N(CC2CC2)C[C@H]1C | i
C[C@H]1CN([C@@H](C)CO)C(=O)c2cc(NC(=O)Nc3ccc(F)cc3)ccc2O[C@H]1CN(C)S(=O)(=O)c1ccc(Cl)cc1 | i
O=C(C[C@@H]1CC[C@@H]2[C@H](COC[C@H](O)CN2S(=O)(=O)c2ccc(Oc3ccccc3)cc2)O1)Nc1ccccc1 | i
COc1ccc(CN(C)C[C@@H]2Oc3ccc(NC(=O)C4CCCCC4)cc3CC(=O)N([C@@H](C)CO)C[C@H]2C)cc1 | i
COC(=O)c1cc2c(c3c4cc(F)ccc4n(S(=O)(=O)c4cccc(C)c4)c13)C(=O)N(c1ccc(OC)cc1)C2 | i
C[C@@H]1CCCCO[C@@H](CN(C)C(=O)c2ccccc2)[C@@H](C)CN([C@H](C)CO)C(=O)c2cc(NC(=O)NC3CCCCC3)ccc2O1 | i
COc1ccc2c3c(n(C)c2c1)[C@@H](CO)N(S(C)(=O)=O)CC31CCN(Cc2cccnc2)CC1 | i
C[C@@H]1CN([C@@H](C)CO)C(=O)c2cc(NC(=O)CCCN(C)C)ccc2O[C@@H]1CN(C)S(=O)(=O)c1ccccc1 | i
C[C@@H]1CN([C@@H](C)CO)S(=O)(=O)c2ccc(-c3cncnc3)cc2O[C@H]1CN(C)C(=O)CC1CC1 | i
Cc1ccccc1NC(=O)Nc1ccc2c(c1)C(=O)N(C)[C@H]1CC[C@@H](CC(=O)NCC3CC3)O[C@H]1CO2 | i
O=C(C[C@H]1CC[C@H]2[C@@H](COC[C@@H](O)CN2S(=O)(=O)c2ccccc2Cl)O1)N1CCC(Cc2ccccc2)CC1 | i
CO[C@H]1CN(C)C(=O)c2ccc(NC(=O)C3CC3)cc2OC[C@@H](C)N(Cc2ccccc2)C[C@H]1C | i
COCc1cn(CC[C@@H]2CC[C@H](NC(=O)Nc3c(C)noc3C)[C@@H](CO)O2)nn1 | i
CO[C@H]1CN(C)C(=O)c2ccc(NC(=O)C3CCC3)cc2OC[C@H](C)N(Cc2ccncc2)C[C@H]1C | i
C[C@@H]1CN([C@H](C)CO)C(=O)c2cc(-c3ccc(F)cc3)cnc2O[C@H]1CN(C)Cc1ccccn1 | i
O=C(C[C@@H]1C[C@H]2c3cc(NS(=O)(=O)c4ccc(F)cc4)ccc3O[C@H]2[C@H](CO)O1)NCCN1CCCCC1 | i
Cn1cnc(CCNC(=O)C[C@@H]2CC[C@@H]3[C@H](COC[C@@H](O)CN3C(=O)Nc3ccc(Cl)cc3)O2)c1 | i
CCCNC(=O)N1CC2(CN(S(=O)(=O)c3ccccc3)C2)c2c(n(C)c3cc(OC)ccc23)[C@H]1CO | i
C[C@H](CO)N1C[C@H](C)[C@@H](CN(C)Cc2ccc(C(=O)Nc3ccccc3N)cc2)Oc2ccc(NC(=O)Cc3cn(C)c4ccccc34)cc2CC1=O | i
COC(=O)[C@@H]1[C@@H](CO)[C@@H]2Cn3c(ccc(-c4ccccc4OC)c3=O)[C@@H]2N1CC1CCOCC1 | i
CS(=O)(=O)c1ccc(OCCCN2CCC(C(O)(c3ccccc3)c3ccccc3)CC2)cc1 | i
CC(=O)N(C)C[C@H]1Oc2cc(C#CC3CCCC3)ccc2S(=O)(=O)N([C@H](C)CO)C[C@@H]1C | i
COCC(=O)Nc1ccc2c(c1)[C@H]1C[C@H](CC(=O)N3CCOCC3)O[C@H](CO)[C@H]1O2 | i
C[C@H](CO)N1C[C@H](C)[C@H](CN(C)Cc2ccc(Cl)c(Cl)c2)Oc2ccc(NC(=O)C3CC3)cc2CC1=O | i
C[C@@H]1CN([C@H](C)CO)C(=O)Cc2cc(NC(=O)CCN3CCOCC3)ccc2O[C@@H]1CN(C)S(=O)(=O)c1cn(C)cn1 | i
C[C@H]1CN([C@@H](C)CO)C(=O)c2cc(NC(=O)Cc3ccccc3)ccc2O[C@H]1CN(C)Cc1ccc(C(=O)Nc2ccccc2N)cc1 | i
COc1cccc(S(=O)(=O)N2CC[C@@H]3[C@H]2c2cc(C4=CCCCC4)ccc2N(C)[C@H]3CO)c1 | i
C[C@H]1CN([C@@H](C)CO)C(=O)c2cc(NC(=O)Cc3cn(C)c4ccccc34)ccc2O[C@@H]1CN(C)Cc1ccc(C(F)(F)F)cc1 | i
O=C(NN=Cc1ccco1)C(=O)Nc1ccc(Cl)c([N+](=O)[O-])c1 | i
O=C(c1cccc(F)c1)N1CCCCN2[C@@H](CO)[C@@H](c3ccc(-c4ccccc4)cc3)[C@@H]2C1 | i
COC(=O)[C@]12C[C@H](CC(=O)NCc3cccs3)C(=O)N(CCc3ccc(OC)c(OC)c3)C1=C[C@H](C(C)(C)C)O[C@@H]2C | i
C[C@@H]1CN([C@@H](C)CO)C(=O)c2cccc(NS(=O)(=O)c3ccc(F)cc3)c2O[C@@H]1CN(C)S(C)(=O)=O | i
O=C(C[C@@H]1CC[C@H]2[C@@H](COC[C@H](O)CN2C(=O)Nc2ccc(F)cc2)O1)NCCc1ccncc1 | i
O=C(C[C@H]1CC[C@@H](NC(=O)Nc2cc(F)ccc2F)[C@@H](CO)O1)Nc1ccc(-c2ccccc2)cc1 | +
C[C@@H]1CN([C@@H](C)CO)C(=O)Cc2cc(NC(=O)CCC(F)(F)F)ccc2O[C@H]1CN(C)Cc1ccncc1 | i
COCC(=O)Nc1ccc2c(c1)OC[C@@H](C)NC[C@H](C)[C@H](OC)CN(C)C2=O | i
O=C(C[C@@H]1C=C[C@H](NC(=O)c2ccc3c(c2)OCO3)[C@H](CO)O1)NCc1ccc(Cl)cc1 | i
CCC(=O)N(C)C[C@@H]1Oc2cc(C#CC3CC3)ccc2S(=O)(=O)N([C@H](C)CO)C[C@@H]1C | i
COc1ccc(S(=O)(=O)N(C)C[C@H]2Oc3ccc(NS(=O)(=O)c4c(C)noc4C)cc3C(=O)N([C@H](C)CO)C[C@H]2C)cc1 | i
OC[C@@H]1Nc2ccc(C#Cc3ccc(F)cc3)cc2[C@H]2[C@@H]1CCN2Cc1ccc2c(c1)OCO2 | i
c1ccc(Cc2cnc(N3CCN(Cc4cccc(-c5ccsc5)n4)CC3)nc2)cc1 | i
C[C@H](CO)N1C[C@H](C)[C@H](CN(C)Cc2ccccc2)Oc2ccc(NC(=O)C3CC3)cc2C1=O | i
CCCCN1CC(COCc2ccccc2)Oc2cccc(Oc3ccc(F)cc3OC)c2S1(=O)=O (stereo not drawn) | i
CO[C@@H]1CN(C)C(=O)c2cc(NS(C)(=O)=O)ccc2OC[C@@H](C)N(Cc2nccs2)C[C@@H]1C | i
C[C@@H]1CN([C@@H](C)CO)C(=O)c2cccc(NS(=O)(=O)c3ccc(F)cc3)c2O[C@H]1CN(C)S(=O)(=O)c1cccs1 | i
CN1C(=O)c2cc(NS(=O)(=O)c3ccccc3F)ccc2OC[C@@H]2O[C@H](CC(=O)NC3Cc4ccccc4C3)CC[C@H]21 | i

Other records follow.
smiles | FGF22 binding
Nc1nc2c(ncn2[C@@H]2O[C@H](C(=O)N[C@H](Cc3ccccc3)C(=O)NCc3ccc4c(c3)OCO4)[C@@H](O)[C@H]2O)c(=O)[nH]1 | i
C[C@@H]1CN([C@@H](C)CO)C(=O)Cc2cc(NC(=O)Nc3ccc4c(c3)OCO4)ccc2O[C@@H]1CN(C)C(=O)Nc1cccc2ccccc12 | i
C[C@@H]1CN([C@H](C)CO)C(=O)Cc2cc(NS(=O)(=O)c3ccc(F)cc3)ccc2O[C@@H]1CN(C)CC1CCCCC1 | i
CCCNC(=O)N(C)C[C@H]1Oc2cc(-c3ccc(C)cc3)ccc2S(=O)(=O)N([C@@H](C)CO)C[C@H]1C | i
C[C@H]1CN([C@@H](C)CO)C(=O)Cc2cc(NC(=O)Cc3ccccc3)ccc2O[C@H]1CN(C)Cc1ccc(Oc2ccccc2)cc1 | i
CO[C@H]1CN(C)C(=O)c2cc(NC(C)=O)ccc2OC[C@@H](C)N(Cc2cc(F)ccc2F)C[C@H]1C | i
Cc1noc(C)c1S(=O)(=O)Nc1cccc2c1O[C@@H](CN(C)S(=O)(=O)c1ccc(F)cc1)[C@@H](C)CN([C@@H](C)CO)C2=O | i
CCCC#Cc1ccc2c(c1)O[C@@H](CN(C)C(=O)c1cccnc1)[C@@H](C)CN([C@@H](C)CO)S2(=O)=O | i
C[C@@H]1CN([C@H](C)CO)C(=O)c2c(c3ccccc3n2C)-c2ccccc2CO[C@@H]1CN(C)C(=O)Nc1ccccc1 | i
COCC#Cc1ccc2c(c1)O[C@@H](CN(C)Cc1ccccc1F)[C@@H](C)CN([C@H](C)CO)S2(=O)=O | i
O=C(Nc1cc(F)ccc1F)N1CCCCN2[C@H](CO)[C@@H](c3ccc(-c4cccnc4)cc3)[C@H]2C1 | i
O=C(Nc1ccc(Cl)cc1)N[C@H]1CC[C@H](CCn2cc(C3(O)CCCC3)nn2)O[C@@H]1CO | i
C[C@H]1CN([C@@H](C)CO)S(=O)(=O)c2ccc(-c3cccc(C#N)c3)cc2O[C@H]1CN(C)Cc1cccc(F)c1 | i
CCNC(=O)C[C@@H]1C=C[C@@H](NC(=O)C2CC2)[C@@H](CO)O1 | i
O=C(C[C@@H]1CC[C@H](NC(=O)c2ccc3c(c2)OCO3)[C@@H](CO)O1)NCc1ccc(Cl)cc1 | i
O=C(C[C@@H]1CC[C@H](NC(=O)c2ccc3c(c2)OCO3)[C@H](CO)O1)NCc1ccc(Cl)cc1 | i
O=C(C[C@@H]1C[C@@H]2c3cc(NC(=O)C4CCC4)ccc3O[C@@H]2[C@@H](CO)O1)NCc1ccccc1 | i
C[C@@H]1CN([C@@H](C)CO)C(=O)c2cc(-c3ccncc3)cnc2O[C@H]1CN(C)C(=O)c1ccc(F)cc1 | i
CCCC(=O)Nc1ccc2c(c1)C(=O)N(C)C[C@@H](OC)[C@H](C)CN(C(=O)CN1CCOCC1)[C@H](C)CO2 | i
CN1CCN(C(=O)C[C@@H]2C[C@@H]3c4cc(NC(=O)C5CCOCC5)ccc4O[C@@H]3[C@@H](CO)O2)CC1 | i
CCC(=O)N1[C@@H]2Cn3c(ccc(-c4cncnc4)c3=O)[C@H]1[C@@H](C(=O)N1CCc3ccccc3C1)[C@@H]2CO | i
CNC[C@H]1Oc2ccc(NS(C)(=O)=O)cc2CC(=O)N([C@@H](C)CO)C[C@@H]1C | i
CN1C(=O)c2cc(NC(=O)c3ccc(F)cc3)ccc2OC[C@H]2O[C@@H](CC(=O)N3CCOCC3)CC[C@H]21 | i

Some of these compounds in order of molecular weight, lowest first.
smiles | FGF22 binding
O=C(Nc1cc(F)ccc1F)N1CCCCN2[C@H](CO)[C@@H](c3ccc(-c4cccnc4)cc3)[C@H]2C1 | i
C[C@@H]1CN([C@H](C)CO)C(=O)c2c(c3ccccc3n2C)-c2ccccc2CO[C@@H]1CN(C)C(=O)Nc1ccccc1 | i
Nc1nc2c(ncn2[C@@H]2O[C@H](C(=O)N[C@H](Cc3ccccc3)C(=O)NCc3ccc4c(c3)OCO4)[C@@H](O)[C@H]2O)c(=O)[nH]1 | i

Screens (PubChem)

Not all compounds are listed, so the mix of outcomes need not match the whole.
